Source: PubChem (National Center for Advancing Translational Sciences (NCATS))
VDR inhibitor: inhibitors of human vitamin D receptor; P11473; VDR-SRC2-3 peptide fluorescence polarization, 2 h; Potency, µM, for the others: max response, negative = inhibition, most hits filed as inhibitors; hit rate 0.93% among 400,000; AID 504847; active = well fitted inhibition curve with a large enough effect; inconclusive = small, poorly fitted or top-dose-only effect, or another doubt; inactive = no such curve, though single readings can be large or run the other way; note: series mostly up to about 120 µM
Target sequence (P11473 whole entry, looked up): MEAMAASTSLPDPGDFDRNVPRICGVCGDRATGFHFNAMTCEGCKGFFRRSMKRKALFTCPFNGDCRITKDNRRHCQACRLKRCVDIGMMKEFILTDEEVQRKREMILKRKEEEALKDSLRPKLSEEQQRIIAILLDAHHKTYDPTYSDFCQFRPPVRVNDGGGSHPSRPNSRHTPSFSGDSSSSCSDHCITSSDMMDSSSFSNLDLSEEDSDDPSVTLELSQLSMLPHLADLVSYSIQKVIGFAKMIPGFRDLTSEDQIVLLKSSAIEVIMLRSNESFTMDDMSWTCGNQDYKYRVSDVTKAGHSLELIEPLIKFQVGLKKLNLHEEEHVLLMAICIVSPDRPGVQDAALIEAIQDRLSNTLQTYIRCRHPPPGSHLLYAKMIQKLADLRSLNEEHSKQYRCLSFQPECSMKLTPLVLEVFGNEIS
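The screen uses fluorescence polarization to detect compounds that interfere with recruitment of the SRC2-3 coactivator peptide to VDR; plates are read after 2 h at room temperature.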
* marks the source's active call; other numbers are inactive results; & = joins results of further samples. % is set by controls: 0 for no effect and ±100 for the full control effect; potency is the fitted concentration of half-maximal effect. The list is partial. The share of hits here may be higher or lower than overall.

Results for CCOC(=O)c1ccc(NC(=O)CSc2nnc(CNC(=O)c3ccc(OC)cc3)n2CC)cc1 ?
VDR inhibitor: 3%

What do the screens show for `CCNS(=O)(=O)c1ccc(NC(=O)Cn2cc([N+](=O)[O-])cn2)cc1`?
VDR inhibitor: -2%

What do the screens show for `CCOC(=O)CC(NS(=O)(=O)c1ccc2[nH]c3c(c2c1)CCCC3)c1ccccc1Cl` (centres undefined)?
VDR inhibitor: 10%

Results for CCC(C(=O)NC1CCN(C)CC1)c1ccccc1 (centres undefined) ?
VDR inhibitor: 5%

What do the screens show for `C=CCc1ccc(OC(=O)NC2CCCCC2)c(OC)c1`?
VDR inhibitor: -3%

Results for O=C(NC1CC1)c1c(O)c2ccccc2[nH]c1=O ?
VDR inhibitor: -1%

What do the screens show for `O=C(CNC(=S)N(Cc1ccccc1)Cc1cccs1)NCc1ccc(F)cc1`?
VDR inhibitor: -7%

How did CCN(CC(=O)Nc1cc(Cl)ccc1C)C(=O)Cc1ccsc1 do in these assays?
VDR inhibitor: -23%

What do the screens show for `COc1cc(/C=C(\C#N)C(=O)Nc2cccc(C(=O)O)c2)ccc1OCc1ccc(Cl)cc1`?
VDR inhibitor: -13%

Results for Cc1cc(=O)n(CCCc2ccccc2)[nH]1 ?
VDR inhibitor: -4%

How did COc1ccc2c(C=O)cn(C)c2c1 do in these assays?
VDR inhibitor: 2%

Results for COc1ccc(N2CC(C(=O)NC3=NCCS3)CC2=O)cc1 (centres undefined) ?
VDR inhibitor: 1%

What do the screens show for `Cc1n[nH]c(C)c1SCC(=O)Nc1ccc(F)cc1`?
VDR inhibitor: -5%

Results for COc1cc2cnc(CCO[C@H]3CCCCO3)cc2cc1OC ?
VDR inhibitor: 5%

What do the screens show for `Nc1nc(Nc2ccccc2)nc2ccccc12`?
VDR inhibitor: -2%

How did CCOC(=O)/C(C#N)=C/c1ccc(OC)c(OC)c1 do in these assays?
VDR inhibitor: -3%

Results for Cc1ccc(C(=O)NC2CCCN(c3ccc(C(F)(F)F)cn3)C2)cn1 (centres undefined) ?
VDR inhibitor: 4%

What do the screens show for `COc1cc(CNC(=O)C2CCCC2)cc(OC)c1OC`?
VDR inhibitor: -4%

Results for CCOc1ccc(NC(=O)CCC(=O)c2ccc(Br)cc2)cc1 ?
VDR inhibitor: -30%

What do the screens show for `O=C(CC1OCC2CCCN2C1=O)Nc1ccc([N+](=O)[O-])cc1` (centres undefined)?
VDR inhibitor: -4%

How did Cc1ccc(C(=O)NCc2ccc(Cl)cc2)cc1S(=O)(=O)N1CCCCC1 do in these assays?
VDR inhibitor: -7%

What do the screens show for `N#CC1(NC(=O)COc2ccccc2[N+](=O)[O-])CCCCC1`?
VDR inhibitor: 12%

Results for CCNC(=O)CCCN1C(=O)CCn2nc(-c3cccn3C)cc21 ?
VDR inhibitor: 11%

What do the screens show for `Clc1ccc(Cc2ccccc2)nn1`?
VDR inhibitor: 7%

How did CCN(C(=O)Cn1c(=O)oc2ccccc21)c1cccc(C(F)(F)F)c1 do in these assays?
VDR inhibitor: 5%

Results for CCOc1ccc2nc3sc(C(=O)N4CCN(C)CC4)c(N)c3cc2c1 ?
VDR inhibitor: -5%

What do the screens show for `Cc1ccc(NC(=O)c2oc3ccc4c(c3c2C)C(=O)CC(C)(C)O4)c(C)c1`?
VDR inhibitor: 7%

Results for COc1cc(CCCN2C(=O)C(=O)NC[C@@H]2c2ccccc2)cc(OC)c1OC ?
VDR inhibitor: -12%

How did O=C(NNC1=NS(=O)(=O)c2ccccc21)c1cccc([N+](=O)[O-])c1 do in these assays?
VDR inhibitor: -27%

Results for O=C(CN1C(=O)COc2ccccc21)NNC(=O)Nc1ccccc1F ?
VDR inhibitor: -3%

How did CC(=NNC(=O)c1ccncc1)c1ccc(Cl)c(Cl)c1 do in these assays?
VDR inhibitor: -13%

What do the screens show for `Cc1ccc(-c2nc(C3CCCN(S(=O)(=O)c4ccc(C(C)(C)C)cc4)C3)no2)cc1` (centres undefined)?
VDR inhibitor: -19%

How did C(=N\c1nccs1)/Nc1nccs1 do in these assays?
VDR inhibitor: 20%

Results for Cc1cc(C(=O)N[C@H](c2ccccc2)[C@@]2(C)C[C@@H]2[C@@H](C)C(=O)Nc2ccc3ccccc3c2)no1 ?
VDR inhibitor: -11%

How did O=C(NC1CCCCC1)C1c2ccccc2C(=O)N1Cc1ccc2c(c1)OCO2 (centres undefined) do in these assays?
VDR inhibitor: -1%

Results for C=C1CCN([C@@H](CC(C)C)C(=O)NCc2ccco2)S(=O)(=O)c2ccccc21 ?
VDR inhibitor: -7%

How did CCOc1ccc(CCNC(=O)COC(=O)/C=C/c2cccc(OC)c2)cc1OCC do in these assays?
VDR inhibitor: -10%

What do the screens show for `Cc1ccc(N(C)S(=O)(=O)c2nnc(NC(=O)C3CCCCC3)s2)cc1`?
VDR inhibitor: 7%

Results for O=C(Nc1c(C(=O)N2CCN(c3ccccc3)CC2)oc2ccccc12)c1ccc(Br)o1 ?
VDR inhibitor: 18%

What do the screens show for `CCCC(=O)Nc1cc2c(cc1C(C)=O)OCCO2`?
VDR inhibitor: 10%

How did CC(C)CCNC(=O)CCCOc1ccccc1 do in these assays?
VDR inhibitor: 6%

What do the screens show for `Cc1ccc(S(=O)(=O)N2CCN(C(=O)COC(=O)c3cc([N+](=O)[O-])ccc3NCCO)CC2)c(C)c1`?
VDR inhibitor: -3%

Results for Cc1c(NC(=O)c2cccc(NC(=O)COc3ccc(C#N)cc3)c2)c(=O)n(-c2ccccc2)n1C ?
VDR inhibitor: 1%

What do the screens show for `Cc1cccc(CS(=O)(=O)c2cn(CC(=O)N3CCOCC3)c3ccccc23)c1`?
VDR inhibitor: -24%

What do the screens show for `COc1ccc(C2C(C(=O)c3ccccc3)N3c4ccccc4C=CC3C2[N+](=O)[O-])cc1` (centres undefined)?
VDR inhibitor: 13%

What do the screens show for `Cc1cc(C)c2c(n1)sc1c(=O)n(-c3cc(Cl)ccc3C)nnc12`?
VDR inhibitor: 11%

Results for CN(C)CCN1C(=O)C2C(C(=O)Nc3cc(Cl)cc(Cl)c3)C3C=CC2(O3)C1C(=O)NC1CCCCC1 (centres undefined) ?
VDR inhibitor: -4%

What do the screens show for `COc1ccc(C)cc1NC(=O)c1ccc(OC(F)F)cc1`?
VDR inhibitor: -11%

What do the screens show for `COc1cc(C)nc(NCc2ccccc2)n1`?
VDR inhibitor: -8%

Results for Cc1ccc2nc(SCC(=O)NCc3ccc(S(N)(=O)=O)cc3)[nH]c2c1 ?
VDR inhibitor: 6%

Part of the list above in order of molecular weight, smallest number first:
What do the screens show for `COc1cc(C)nc(NCc2ccccc2)n1`?
VDR inhibitor: -8%

What do the screens show for `COc1ccc(C)cc1NC(=O)c1ccc(OC(F)F)cc1`?
VDR inhibitor: -11%

What do the screens show for `Cc1cc(C)c2c(n1)sc1c(=O)n(-c3cc(Cl)ccc3C)nnc12`?
VDR inhibitor: 11%

Results for Cc1ccc2nc(SCC(=O)NCc3ccc(S(N)(=O)=O)cc3)[nH]c2c1 ?
VDR inhibitor: 6%

What do the screens show for `Cc1cccc(CS(=O)(=O)c2cn(CC(=O)N3CCOCC3)c3ccccc23)c1`?
VDR inhibitor: -24%

Results for Cc1c(NC(=O)c2cccc(NC(=O)COc3ccc(C#N)cc3)c2)c(=O)n(-c2ccccc2)n1C ?
VDR inhibitor: 1%

What do the screens show for `Cc1ccc(S(=O)(=O)N2CCN(C(=O)COC(=O)c3cc([N+](=O)[O-])ccc3NCCO)CC2)c(C)c1`?
VDR inhibitor: -3%

Continued:
How did COc1cccc(OC)c1C(=O)Nc1ccc2c3c(cccc13)CC2 do in these assays?
VDR inhibitor: -2%

How did Cc1ccc(/C=N\NC(=O)Cc2cccn2C)o1 do in these assays?
VDR inhibitor: -26%

How did O=C(O)CN1C(=O)/C(=C\c2cn(CC(=O)N3CCOCC3)c3ccccc23)SC1=S do in these assays?
VDR inhibitor: 1%

How did Cc1nc2nc(C)n(-c3ccccc3)c2s1 do in these assays?
VDR inhibitor: -3%

What do the screens show for `CC1CCC(CC(=O)O)(C(=O)O)CC1` (centres undefined)?
VDR inhibitor: 1%

What do the screens show for `Cc1nc(N2CCCCC2)c2ccsc2n1`?
VDR inhibitor: 14%

What do the screens show for `C=CCn1c(C)c(C(C)=O)c(N2CCOCC2)nc1=S`?
VDR inhibitor: 3%

Results for Cc1cc(Br)c(NC(=O)Cn2c([N+](=O)[O-])cnc2C)cc1C ?
VDR inhibitor: 14%

How did CCOc1ccc(CCNC(=O)C2CCN(Cc3nc(-c4ccc(OC)c(OC)c4)oc3C)CC2)cc1OCC do in these assays?
VDR inhibitor: -7%

What do the screens show for `Cc1cc(C)nc(N2CCCC(C(=O)NCC(c3ccccc3)c3ccccc3)C2)n1` (centres undefined)?
VDR inhibitor: -1%

How did O=C(CSc1nnc(SCC(=O)NCc2ccc3c(c2)OCO3)s1)NCc1ccc2c(c1)OCO2 do in these assays?
VDR inhibitor: 8%

How did O=c1c(-c2ccccc2)coc2cc(O)cc(O)c12 do in these assays?
VDR inhibitor: 28µM*

What do the screens show for `Cc1nc2ccccc2nc1CN1CCN(Cc2ccc(F)c(F)c2)C(CCO)C1` (centres undefined)?
VDR inhibitor: -8%

Results for CCOC(=O)c1ccc(N=C2SC(C(=O)Nc3ccc(C(=O)O)cc3)CC(=O)N2Cc2cccs2)cc1 (centres undefined) ?
VDR inhibitor: -10%

How did O=C(COC(=O)CSc1ccc([N+](=O)[O-])cc1)NCCCc1ccccc1 do in these assays?
VDR inhibitor: 71µM*

How did CCC1(C)Cc2ccccc2-c2nc(SCC(N)=O)[nH]c(=O)c21 (centres undefined) do in these assays?
VDR inhibitor: 9%

Results for COc1cc(C(CCN2CCOCC2)c2c(OC)cc(OC)c3ccc(=O)oc23)cc(OC)c1OC (centres undefined) ?
VDR inhibitor: -1%

What do the screens show for `CCOc1cc2c(cc1OCC)C(c1ccc(F)cc1)NCC2` (centres undefined)?
VDR inhibitor: -1%

What do the screens show for `COc1ccc(-c2noc(CN(C)S(=O)(=O)c3ccc(Cl)cc3)n2)cc1OC`?
VDR inhibitor: 2%

How did CCC(CC)C(=O)Nc1nnc(S(=O)(=O)Nc2ccccc2C)s1 do in these assays?
VDR inhibitor: -15%

Results for O=C1CCC(/C=C/c2ccccc2)=NN1Cc1ccc(F)cc1 ?
VDR inhibitor: -5%

What do the screens show for `Nc1ccccc1C(=O)Nc1cccc(C(=O)O)c1`?
VDR inhibitor: 5%

How did COc1ccccc1C(=O)Nc1nnc(S(=O)(=O)N2CCCCC2)s1 do in these assays?
VDR inhibitor: -3%&4%

What do the screens show for `O=c1c(-c2ccccc2)nc2cncnc2n1-c1ccccc1`?
VDR inhibitor: -9%

What do the screens show for `CCCC(=O)c1cc(-c2nc3ccccc3n2C)n(C)c1`?
VDR inhibitor: 11%

What do the screens show for `Cc1cc(C(=O)N/N=C/c2ccccn2)n[nH]1`?
VDR inhibitor: 2%

Results for CC1CCN(CCCN2C(=O)C3C(C(=O)Nc4ccc(Cl)cc4)C4C=CC3(O4)C2C(=O)NC2CCCCC2)CC1 (centres undefined) ?
VDR inhibitor: 3%

Results for COc1ccccc1N1CCN(C(c2ccc(C)cc2)c2nnnn2C(C)C)CC1 (centres undefined) ?
VDR inhibitor: 11%

How did CC1CCC(NS(=O)(=O)c2ccc3c(c2)CC(=O)N3)CC1 (centres undefined) do in these assays?
VDR inhibitor: 0%

Results for Cc1ccc(N(CC(O)Cn2c3ccccc3c3ccccc32)S(C)(=O)=O)c(C)c1 (centres undefined) ?
VDR inhibitor: 0%

Results for CCOC(=O)C1=C(C)Nc2sc(C(=O)c3ccc(F)cc3)c(N)c2C1c1ccc(C(=O)OC)cc1 (centres undefined) ?
VDR inhibitor: -6%

What do the screens show for `COc1ccc(C(=O)CSc2nnc(-c3ccccc3)o2)cc1`?
VDR inhibitor: -11%

Results for COc1ccccc1-c1nc(SCC(=O)NCc2ccco2)c2c(=O)n(C)c(=O)n(C)c2n1 ?
VDR inhibitor: 21%

Results for CC(C)(c1ccccc1)c1ccc(OCc2ccc(C(=O)O)o2)cc1 ?
VDR inhibitor: inconclusive

What do the screens show for `CC(C)(C)n1nc2c(c1NC(=O)c1ccco1)CS(=O)C2` (centres undefined)?
VDR inhibitor: -18%

How did O=C(Nc1cccnc1)c1ccc(Cl)c(Cl)c1 do in these assays?
VDR inhibitor: -2%

Results for COc1cccc(NS(=O)(=O)CC23CCC(CC2=O)C3(C)C)c1 (centres undefined) ?
VDR inhibitor: 11%

What do the screens show for `CCSc1nnc([C@H](Cc2ccccc2)NC(=O)OC(C)(C)C)o1`?
VDR inhibitor: -10%

What do the screens show for `O=C(CNC(=O)c1cccc(Br)c1)N/N=C/c1ccc2c(c1)OCO2`?
VDR inhibitor: 13%

How did CC(Sc1nnc2c(n1)C1CCC2(C)C1(C)C)C(=O)Nc1ccccc1 (centres undefined) do in these assays?
VDR inhibitor: -22%

What do the screens show for `Nc1nonc1-n1nnc(C(=O)N/N=C/c2ccc(Cl)cc2Cl)c1CN1CCCCC1`?
VDR inhibitor: 12%

What do the screens show for `NC(=O)c1nsc(C(=O)N(Cc2ccco2)C(C(=O)NCC2CCCO2)c2ccc(F)cc2)c1N` (centres undefined)?
VDR inhibitor: -2%

Results for CCN(CC)c1ccc(C=N/C(C#N)=C(\N)C#N)cc1 ?
VDR inhibitor: -21%

What do the screens show for `CC(C)(C)C(=O)Nc1cc2c3c(c1)CCN3C(=O)CC2`?
VDR inhibitor: -15%

Fetched by structure from the entries so far (3):
How did C(=N\c1nccs1)/Nc1nccs1 do in these assays?
VDR inhibitor: 20%

How did Cc1ccc(C(=O)NCc2ccc(Cl)cc2)cc1S(=O)(=O)N1CCCCC1 do in these assays?
VDR inhibitor: -7%

What do the screens show for `O=C(CC1OCC2CCCN2C1=O)Nc1ccc([N+](=O)[O-])cc1` (centres undefined)?
VDR inhibitor: -4%
